Source: PubChem BioAssay (National Center for Advancing Translational Sciences (NCATS))
HPGD inh = inhibitors of human 15-hydroxyprostaglandin dehydrogenase (HPGD) | P15428 | purified HPGD, NADH fluorescence kinetic, PGE2 substrate | Potency, µM, for inactives: at the highest dose activity change, negative = inhibition, hits mostly inhibitors | actives 4.3% (n = 150,000) | AID 894; active = well fitted inhibition curve with a large enough effect (not every such curve was filed as active); inconclusive = small, poorly fitted or top-dose-only effect, or another doubt; inactive = no such curve, though single readings can be large or run the other way;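 further: top concentration of the series not given in the record; plate controls included wells without enzyme; inactives centre near -10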
Target sequence (P15428 whole entry, looked up): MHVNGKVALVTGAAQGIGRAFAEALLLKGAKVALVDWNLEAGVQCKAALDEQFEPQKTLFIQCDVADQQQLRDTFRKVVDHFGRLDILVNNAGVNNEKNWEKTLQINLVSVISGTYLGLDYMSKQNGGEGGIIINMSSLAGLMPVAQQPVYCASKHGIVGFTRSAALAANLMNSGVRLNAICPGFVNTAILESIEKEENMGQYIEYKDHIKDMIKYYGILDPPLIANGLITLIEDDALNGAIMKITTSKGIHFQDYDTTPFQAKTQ
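NADH formation kinetics: reaction with 30 uM PGE2 and 1 mM NAD+ (final), 20 nM enzyme, Tris-HCl pH 8 with Tween 20, after 15 min compound preincubation at room temperature. Fluorescence change, last versus first of five reads.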
An asterisk follows results filed as active; ? = inconclusive; & = joins results of further samples. On the % scale 0 is the no-effect control and ±100 the full control effect; potency means the concentration at half of the fitted maximal effect.

SMILES | HPGD inh
CCOc1cc(/C=N/NC(=O)c2cc(C)[nH]n2)ccc1OC(=O)c1ccc([N+](=O)[O-])cc1 | -14%
CCCCNC(=O)C(Sc1ccccc1)c1ccccc1 (centres undefined) | -10%
CC(=O)N/C(=C/c1ccc2c(c1)OCO2)C(=O)Nc1ccccc1 | -18%
O=C(CN1CCCCC1)N1c2ccccc2CCc2ccccc21 | -9%
c1ccc(CN2CCOCC2)cc1 | -5%
CCCC(=O)NC(Nc1ccccc1F)C(Cl)(Cl)Cl (centres undefined) | -14%
O=S(=O)(N/N=C/c1ccc(Cl)cc1)c1ccc(Cc2ncc(C(F)(F)F)cc2Cl)s1 | -2%
COc1cc(NC(=O)c2ccc(-c3ccc(Br)cc3)o2)ccc1NC(=O)C(C)C | 17%
COc1cccc(C(=O)Nc2ccc(N3CCCC3)cc2)c1 | -13%
CC(C)Oc1ccc(C(=O)NC2(C(F)(F)F)NC(=O)N(CCCc3ccccc3)C2=O)cc1 (centres undefined) | -20%
O=C(CSCc1cccc(CSCC(=O)Nc2ccccc2)n1)Nc1ccccc1 | -6%
Cn1c(C(=O)NCC2CCCO2)cc2c(=O)n3ccccc3nc21 (centres undefined) | ?
CCOC(=O)N/N=C/c1cc(C)n(-c2cccc3ccccc23)c1C | -10%
NNC(=O)c1cccc(COc2ccc3c(c2)CCC3)c1 | 20µM*
COC(=O)C1=C(C)N(Cc2ccco2)C(=O)/C1=C\c1ccc(N(C)C)cc1 | -26%
O=C(CC1SC(=NCCc2ccccc2)N(/N=C/c2cccs2)C1=O)Nc1ccc(Cl)cc1 (centres undefined) | -29%
O=C(O)Cc1ccc2ocnc2c1 | 1%
CCC1SC2=NCN(c3ccccc3)CN2C1=O (centres undefined) | -10%
CC1=C(C(=O)Nc2ccccc2)C(c2cccc([N+](=O)[O-])c2)Nc2nc3ccccc3n21 (centres undefined) | -2%
CCn1cc(C(=O)NCc2ccc(C)o2)c2cc(OC)c(OC)cc2c1=O | -16%

Rewritten with tabs: entries from further up.
SMILES	HPGD inh
O=C(CN1CCCCC1)N1c2ccccc2CCc2ccccc21	-9%
COc1cc(NC(=O)c2ccc(-c3ccc(Br)cc3)o2)ccc1NC(=O)C(C)C	17%
c1ccc(CN2CCOCC2)cc1	-5%
CC1=C(C(=O)Nc2ccccc2)C(c2cccc([N+](=O)[O-])c2)Nc2nc3ccccc3n21 (centres undefined)	-2%
CCCC(=O)NC(Nc1ccccc1F)C(Cl)(Cl)Cl (centres undefined)	-14%

Next records
SMILES | HPGD inh
O=C(C[n+]1ccccc1)Nc1cc(C(F)(F)F)ccc1Cl | -12%
CCCC(=O)N1CCN(c2ccc(NC(=O)c3ccco3)cc2)CC1 | -8%
CN(c1ccc(C(=O)N2CCOCC2)cc1[N+](=O)[O-])C1CCCCC1 | -14%
COC(=O)c1cc(CNC(=O)c2ccc(O)c(Cl)c2)ccc1OC | -5%
O=C(O)c1ccnc(Cl)c1 | -4%
Cc1cc(C(=O)Oc2ccccc2C(=O)O)c(C)o1 | -5%
Fc1ccccc1CSc1ncn[nH]1 | -6%
COC(=O)CCCCCN1C(=O)NC(c2ccccc2)C(C(=O)OCc2ccccc2)=C1C (centres undefined) | -6%&-21%
CCC(=O)c1ccc(OCCSc2ncccn2)cc1 | 32µM*
c1ccc(-c2nnc(-c3ccccc3)o2)cc1 | -13%

5 entries picked at random from the list so far:
SMILES | HPGD inh
CCCC(=O)N1CCN(c2ccc(NC(=O)c3ccco3)cc2)CC1 | -8%
Cn1c(C(=O)NCC2CCCO2)cc2c(=O)n3ccccc3nc21 (centres undefined) | ?
CCOC(=O)N/N=C/c1cc(C)n(-c2cccc3ccccc23)c1C | -10%
O=C(O)Cc1ccc2ocnc2c1 | 1%
O=C(CSCc1cccc(CSCC(=O)Nc2ccccc2)n1)Nc1ccccc1 | -6%

Following part
SMILES | HPGD inh
CSC1=NCCN1C(=O)COc1ccccc1 | -8%
COc1ccc(NC(=O)CNS(=O)(=O)c2ccccc2)cc1Cl | 1%
CCCC(=O)NC(=S)Nc1ccc(NC(=O)c2cccs2)cc1 | ?
CC(=O)Nc1ccc(Sc2ncnc3scc(-c4ccccc4)c23)cc1 | -13%
N#Cc1ccc(NC(=O)CCc2nc3ccccc3s2)cc1 | -10%
CCOC(=O)C1CCCN(C(=O)c2ccccc2NC(C)=O)C1 (centres undefined) | -7%
Cn1c(N)c(N=Nc2ccc(S(N)(=O)=O)cc2)c(=O)n(C)c1=O | -8%
O=C(O)CSCc1ccc(C(=O)O)o1 | -6%
COc1ccc(C2CC(=O)C=C(NCC3CCCO3)C2)cc1 (centres undefined) | -6%
C1=CC2CC1CC2CNCc1ccco1 (centres undefined) | -4%
CCN1CCc2c(OCC(=O)N3N=C(c4cccs4)CC3c3ccc(F)cc3)cccc2C1=O (centres undefined) | ?
Cc1ccc(C)c(NC(=S)c2ccccn2)c1 | 28µM*
Cn1ncc2c(NNC(=O)Cc3cccc4ccccc34)ncnc21 | -5%
CCCCCCc1cc2cc(S(=O)(=O)c3ccc(Cl)cc3)c(=O)oc2cc1O | ?
COc1ccccc1-c1nc(C#N)c(NCc2ccc(F)cc2)o1 | ?
CCC(C)(c1nnnn1-c1c(C)cccc1C)N(N=O)c1cccc(C(F)(F)F)c1 (centres undefined) | -5%
CCOc1cccc(C(=O)Nc2cc(-c3nn4c(C)nnc4s3)ccc2C)c1 | -9%
CCc1nnc(NC(=O)C2CCCN(S(=O)(=O)c3ccccc3)C2)s1 (centres undefined) | -6%
Nc1ncnc2c1ncn2[C@@H]1O[C@H](CO)[C@H](O)[C@H]1O | -11%
COc1cc(NC(=S)Nc2ccc(S(=O)(=O)N3CCOCC3)cc2)cc(OC)c1OC | -3%
COC(=O)CSc1nc(-c2ccc(F)cc2)cc(C(F)(F)F)n1 | 0%
Cc1ccc(-c2nnc(SCC(=O)N3CCCC3)o2)cc1C | -27%
CCn1c(C)[n+](CCOCC[n+]2c(C)n(CC)c3cc(Cl)c(Cl)cc32)c2cc(Cl)c(Cl)cc21 | -1%
O=c1[nH]c(-c2ccccc2O)nc2c1CCCC2 | ?
Cc1cc(C)cc(OCC(=O)NNC(=O)CCC(=O)NCc2ccccc2)c1 | -8%
CCC(C)C(=O)O[C@H]1C[C@@H](C)C=C2C=C[C@H](C)[C@H](CC[C@@H]3C[C@@H](O)CC(=O)O3)C21 (some centres undefined) | 3%
CCOc1ccc(/C=N/Nc2nc(N3CCCC3)nc(N3CCCC3)n2)cc1OC | -16%
Cc1nn(C)c(C(=O)Nc2ccn(C34CC5CC(CC(C5)C3)C4)n2)c1[N+](=O)[O-] | -19%
Cc1ccc2c(c1)c1c(n2CC(O)Cn2c(C)nc3ccccc32)/C(=N\O)CCC1 (centres undefined) | ?
CNc1nc(NC)nc(-n2c(C(F)(F)F)nc3ccccc32)n1 | -7%
CCOC(=O)C1=C(C(F)(F)F)Nc2ncnn2C1c1cccc(OC)c1OC (centres undefined) | -2%
CCC1=C(OC(=O)N(CC)CC)N2C(=O)OC(=NCCc3c[nH]c4ccccc34)[C@]2(C)[C@H]2C1=CC[C@H]1C(=O)N(CC)C(=O)[C@H]12 | -9%
CNC(=O)c1ccc2snnc2c1 | -12%
CCc1c(C)nc2[nH]nc(NC(=O)C(F)(F)F)n2c1=O | -7%
O=C(/C=C/c1cccc2ccccc12)NCCC1=CCCCC1 | ?
Cc1ccccc1N1C(=O)c2ccccc2N2C(=O)c3ccccc3C12 (centres undefined) | -5%
CC(C)c1ccc(/C=N/NC(=O)c2cccc(Cl)c2)cc1 | -4%
CCCC(O)(CCC)C(=O)NN(C(=O)CCl)c1cccc(C)c1 | -3%
C=CCc1ccccc1OCC(=O)N/N=C/c1ccccc1OCC | -13%
CCOc1ccc(-c2nc(C#N)c(NCC(C)C)o2)cc1 | ?
COc1c(Cl)cc(Cl)cc1C(=O)Nc1ccc(C(=O)O)cc1 | -6%
O=C(Nc1ncn[nH]1)C(F)(F)C(F)F | -3%
CCc1ccc(C2=CC(c3cc(Br)ccc3F)n3ncnc3N2)cc1 (centres undefined) | -26%
O=C(CCn1c(=O)sc2ccccc21)NCCC1=CCCCC1 | -15%
CCc1nnc(NC(=O)c2ccc(-c3cc(C(F)(F)F)ccc3Cl)o2)s1 | -16%
COCCOC(=O)C1=C(C)NC2=C(C(=O)CC(c3cccs3)C2)C1c1ccsc1 (centres undefined) | ?
CS(=O)(=O)Nc1cccc(-c2ccc3ncnc(NCc4cccnc4)c3c2)c1 | 25µM*
CC(NC(=O)C12CC3CC(CC(C3)C1)C2)C(=O)N/N=C/C1=C(N2CCOCC2)C(=C\c2ccccc2)/CC1 (centres undefined) | -16%
C=CCSc1nc2ccccc2[nH]1 | -14%
NC(=O)[C@@H]1CCCN1Cc1ccc2c(c1)OCO2 | -4%
Going on with the list.
SMILES | HPGD inh
CCOC(=O)c1ccc(NC(=O)CNC(=O)C2CCCCC2)cc1 | -17%
c1ccc(-c2ccc(-c3cnc4n3CCCCC4)cc2)cc1 | ?
CCn1c(=O)c2cc(S(=O)(=O)NCCOc3ccccc3)ccc2n(CC)c1=O | -6%
Cc1cc(NC(=O)c2sc(Nc3cccc(C(F)(F)F)c3)nc2N)no1 | -13%
O=[N+]([O-])c1ccc(Oc2ccc(S(=O)(=O)Nc3ccccc3)cc2)cc1 | -5%
COc1cc(/C=C(/C(=O)c2cccs2)c2nc3ccccc3[nH]2)ccc1O | -30%
COC(=O)c1ccccc1NC(=O)Nc1cccnc1 | -22%
CC(C)(C)CC(C)(C)c1ccc(O)c(CN2CCN(CCC#N)CC2)c1 | -4%
O=[N+]([O-])c1nn(-c2ccc3c(c2)OCCO3)n(O)c1=Nc1ccc(Cl)cc1 | -3%
Cc1ccc(C)c(NC(=O)C(Sc2ncnc3ccccc23)c2ccccc2)c1 (centres undefined) | -5%
Cc1ccc(CCNC(=O)C2CCN(c3nn4c(=O)cc(C)nc4s3)CC2)cc1 | 1%
Cn1c(N)c(C(=O)COC(=O)C2=COCCO2)c(=O)n(C)c1=O | -10%
COC(=O)c1nnn(-c2nonc2N)c1-c1cccs1 | -18%
CC(=O)Oc1cc(C(C)C)c(OCCN(C)C)cc1C | -14%&3%&2%
COc1ccc(C)cc1NC(=O)c1cnc2n(c1=O)CCS2 | -26%
Cc1cc(-c2n[nH]c(=S)n2/N=C/c2sccc2C)n[nH]1 | 22µM*
COc1ccc(C2c3c(oc4c(C)cc(C)cc4c3=O)C(=O)N2Cc2cccnc2)cc1OC (centres undefined) | -11%
CC1CC(C)CN(CC(=O)N2CCc3[nH]c4ccccc4c3C2)C1 (centres undefined) | -16%
CCOC(=O)Cn1ncc(-c2ccccc2)c1N | -2%
Cc1ccc(-c2cc(C(=O)NN=C3CCCC3)c3ccccc3n2)cc1 | -29%
C[C@]12CC[C@@H]3c4ccc(O)cc4CC[C@H]3[C@@H]1CCC2=O | -19%&-10%
O=c1nc2n(c3sc4c(c13)CCCC4)C(CBr)CS2 (centres undefined) | ?
COc1ccc(OC)c(C(=O)CSc2nnc(Cc3cccs3)n2CCc2ccccc2)c1 | ?
Cn1nc(C(=O)NCCN2CCOCC2)c2ccccc2c1=O | -12%

Single entries from the results shown:
Cn1nc(C(=O)NCCN2CCOCC2)c2ccccc2c1=O in HPGD inh: -12%
C[C@]12CC[C@@H]3c4ccc(O)cc4CC[C@H]3[C@@H]1CCC2=O in HPGD inh: -19%&-10%

These rows are one share of the data (hit frequency here may not be typical).
